# INS promoter inh: TRM-6 insulin promoter activity inhibition; TRM-6 cells (human fetal islet line), insulin promoter-eGFP reporter, imaging; reporter expression induced with tamoxifen; inhibition, % at 2 µM; hit rate 0.9% among 130,000;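 active means inhibition above the mean plus 3 SD, with well images judged a real hit on visual review, cut at about 60% in these data, passing the limit was not always enough; inconclusive means inhibition over the cutoff but images rejected on review; inactive means inhibition not above the cutoff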
# PKD1 inh: PKD1 (human) kinase inhibition | Q15139 | inhibition, %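 (about 10 µM by stock and volumes)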 | PKD1 kinase fluorescence polarization assay | AID 797 | hit rate 0.056% among 200,000;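 active means inhibition of 50% or more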;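 further: controls were vehicle for no effect and a reference inhibitor for full effect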
# RGS16-Gao HTS: regulators of human RGS16-Galphao interaction; O15492+P09471; hit rate 0.38% among 220,000; binding response (% of control), % at 10 µM; bead-based flow cytometry RGS16-Galphao binding, fluorescence; actives lie on both sides;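 active means below 25% or above 175%, edge rows of some plates excepted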;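 further: Galphao activated by GDP with aluminum fluoride before binding; 100% = wells without compound and 0% = beads without RGS; some results beyond the cut were filed as inactive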
# Target sequence (O15492 whole entry, looked up): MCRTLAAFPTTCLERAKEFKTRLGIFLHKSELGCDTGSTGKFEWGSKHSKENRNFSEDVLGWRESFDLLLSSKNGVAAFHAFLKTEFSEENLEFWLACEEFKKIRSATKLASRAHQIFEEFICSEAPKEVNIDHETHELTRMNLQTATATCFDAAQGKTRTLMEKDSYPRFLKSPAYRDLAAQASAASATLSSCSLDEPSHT
# Target sequence (P09471 whole entry, looked up): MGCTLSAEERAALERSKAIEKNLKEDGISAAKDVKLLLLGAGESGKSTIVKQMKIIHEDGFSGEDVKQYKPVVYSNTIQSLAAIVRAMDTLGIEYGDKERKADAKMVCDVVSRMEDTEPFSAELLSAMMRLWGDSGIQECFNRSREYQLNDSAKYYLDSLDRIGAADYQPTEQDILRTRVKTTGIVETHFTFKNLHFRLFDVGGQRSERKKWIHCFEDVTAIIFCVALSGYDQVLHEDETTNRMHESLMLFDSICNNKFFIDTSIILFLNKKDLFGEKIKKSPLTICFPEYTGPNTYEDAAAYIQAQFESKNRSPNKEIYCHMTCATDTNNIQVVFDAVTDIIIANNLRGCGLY
# GALR2 agonist: activates the human galanin receptor 2. O43603. GALR2-expressing cells, agonist activation read-out. activation, %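 (tested at 5 µM)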. hit rate 0.48% among 140,000. AID 803;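 active means above mean plus 3 SD of all compounds, about 5% in these data, not always enough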;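 further: 0% = vehicle buffer wells and 100% = reference agonist at full effect; tested in CHO reporter cells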
# Target sequence (O43603 whole entry, looked up): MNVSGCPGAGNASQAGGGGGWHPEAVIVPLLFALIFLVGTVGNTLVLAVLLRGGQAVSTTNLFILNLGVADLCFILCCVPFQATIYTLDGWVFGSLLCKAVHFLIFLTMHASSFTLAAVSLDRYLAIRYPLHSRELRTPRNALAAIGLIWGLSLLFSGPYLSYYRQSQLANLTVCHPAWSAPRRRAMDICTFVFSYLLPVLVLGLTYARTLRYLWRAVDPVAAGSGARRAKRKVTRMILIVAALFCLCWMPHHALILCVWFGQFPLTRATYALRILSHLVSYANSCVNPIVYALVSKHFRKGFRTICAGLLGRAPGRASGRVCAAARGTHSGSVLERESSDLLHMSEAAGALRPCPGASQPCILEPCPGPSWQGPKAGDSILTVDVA
# HSV replic up: increases HSV replication in cells | HSV replication augmentation in cells, fold increase | maximum fold increase | hit rate 0.005% among 220,000 | AID 1956;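 active means peak rise of 1.5-fold or more in the series; inconclusive means self-fluorescent or not available for retest; tested in PC3 cells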;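 further: first round at 10 µM; read as green reporter fluorescence; hits show the peak of a series up to 25 µM; 1 = signal of infected wells without compound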
# INS promoter inh cell count: also measured in INS promoter inh; calls as there; normalized cell count, %; measured here: cell count, toxicity; reference of the scale not given here;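 cells exposed to compound for 48 h; stained nuclei by imaging scaled within each plate; lower means fewer cells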
# HSV replic up primary fold: recorded beside HSV replic up, whose call it bears; fold increase; compound at 10 µM; measured here: primary screen fold increase 10 uM; tested in PC3 cells;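 GFP signal in the first replicate; 1 = infected wells without compound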
# Starred values were filed as active, the others as inactive; i = inactive; ? = inconclusive; nt = no result given.
SMILES,INS promoter inh,INS promoter inh cell count,PKD1 inh,RGS16-Gao HTS,GALR2 agonist,HSV replic up,HSV replic up primary fold
CC(C)CCN1CC(C(=O)NCCC2=CCCCC2)CC1=O (stereo not given),nt,nt,-13,103,-1.3,i,0.88
Cc1ccc(C2CC(=O)NC(SCCC(C)C)=C2C#N)cc1 (stereo not given),nt,nt,4,98,-4.2,i,0.94
CCn1cc(C(=O)Nc2cccc(C)c2)c(=O)c2ccc(C)nc21,nt,nt,-4,101,nt,i,0.91
C=CCOc1nc2c(c(=O)n(C)c(=O)n2C)n1Cc1ccc(Cl)cc1Cl,-12,108,-6,99,1.6,i,1
COc1ccc(C2NC(=O)c3ccccc3N2)cc1OC (stereo not given),-50,112,-1,73,-1.5,nt,nt
COc1ccc(Nc2ncc3c(n2)CC(c2ccc(C)cc2)CC3=O)cc1 (stereo not given),44,101,-2,103,-1.9,i,0.92
Cc1ccc(/C=N/Nc2ccc(C(=O)O)cc2)o1,nt,nt,0,96,nt,i,0.95
Fc1ccccc1Cc1ccc(Cl)nn1,19,77,5,101,nt,i,0.96
NS(=O)(=O)c1ccc(NS(=O)(=O)c2ccc(NC(=O)c3ccc(-c4ccccc4)cc3)cc2)cc1,32,105,-6,410,0.4,nt,nt
CCCC12CN(C(=O)c3ccc(OC)cc3)CC(C)(CN(C(=O)c3ccc(OC)cc3)C1)C2=O,-5,133,-7,101,-1.0,i,0.86
CC(C(=O)OCC(=O)Nc1ccc(S(=O)(=O)N2CCCCC2)cc1)N1C(=O)c2ccccc2C1=O (stereo not given),47,98,0,100,-0.7,i,0.7
COc1cc2c(cc1OC)C(C(=O)NCc1ccco1)C(c1cccs1)N(C)C2=O (stereo not given),36,100,-7,98,-0.7,i,0.82
O=C(COc1ccc([N+](=O)[O-])cc1)Nc1ccc(CN2CCOCC2)cc1,nt,nt,3,105,nt,i,1
C=CCNC(=O)COC(=O)c1ccc(Cl)c(S(N)(=O)=O)c1,-90,76,-8,102,nt,i,0.91
O=C(C1=C[C@H](c2ccccc2)C[C@H](OCc2ccc(CO)cc2)O1)N1CCN(Cc2ccc3c(c2)OCO3)CC1,nt,nt,7,95,nt,i,1.1
O=S(=O)(c1cnccc1N1CCN(/N=C/c2ccccc2)CC1)N1CCCCC1,42,114,-13,101,-1.3,i,1
CCC(C)Oc1nc2ccccc2nc1NS(=O)(=O)c1ccccc1 (stereo not given),40,74,3,101,-1.4,i,0.89
C=CCNC(=O)COc1ccc(S(=O)(=O)Nc2ccc(OCC)cc2)cc1,-22,130,-8,107,-1.9,i,0.9
COC(=O)c1ccccc1NC(=O)/C=N/O,32,68,-7,98,-2.0,nt,nt
COc1cc(OC)c2c(C)c(Cl)c(=O)oc2c1,36,116,0,107,2.8,i,0.81
Cc1ccc(/C=N/NC(=O)CN(Cc2ccccc2)S(=O)(=O)c2ccc3c(c2)OCCO3)cc1,10,120,-10,70,0.3,i,0.82
CCN1C(=O)/C(=C\c2ccncc2)SC1=Nc1ccc(C)c(C)c1,28,47,-2,66,-0.6,i,1
COc1ccc2c(c1OC)C(=O)N1N=C(c3ccc(Br)cc3)CC21 (stereo not given),nt,nt,-2,104,-0.6,nt,nt
Cc1onc(-c2c(F)cccc2Cl)c1C(=O)c1ccccc1,nt,nt,nt,100,nt,i,1.4
O=C(COC(=O)Cc1ccc(S(=O)(=O)N2CCOCC2)s1)Nc1ccc2c(c1)OCO2,-17,95,6,106,-0.9,i,0.81
CCc1ccc(NC(=O)CSc2nc(CSc3ccc(C)cc3)cc(=O)[nH]2)cc1,nt,nt,nt,103,nt,i,1.1
O=C(NC(=S)NCCC1=CCCCC1)c1cccnc1,nt,nt,-5,101,nt,i,1.1
COC(=O)c1ccc(CSc2nc3c(cnn3-c3ccc(C)c(C)c3)c(=O)[nH]2)o1,-53,233,-7,nt,-0.8,i,0.81
O=S(=O)(c1cccc(-c2cn3cccnc3n2)c1)N1CCCCCC1,nt,nt,-9,109,-0.6,i,0.91
Cc1ccc(C(=O)NS(=O)(=O)c2ccc(C)cc2)cc1,nt,nt,nt,108,nt,i,0.76
CC(C)[C@H](NC(=O)c1ccccc1)C(=O)OCC(=O)NCCC1=CCCCC1,-41,57,-7,140,0.1,i,1
COc1ccc(-c2coc3c(CN4CCCCC4)c(O)c(CN4CCCCC4)c(O)c3c2=O)cc1,-100,113,6,132,0.0,i,0.45
CCN1CCN(CC(=O)c2ccc(OC)cc2)CC1,nt,nt,2,101,nt,i,0.99
COc1ccccc1Oc1c(C)oc2c(CN3CCN(C)CC3)c(O)ccc2c1=O,-29,121,-10,101,-1.9,nt,nt
Cc1ccccc1Nc1nc(CSc2nnc(-c3ccoc3C)n2C)cs1,nt,nt,-11,98,-1.7,i,1.1
C[C@@H]1NC(=O)c2cc([N+](=O)[O-])cc(I)c2NCC[C@@H](C(N)=O)NC(=O)[C@H](CC(N)=O)NC1=O,0,99,-11,106,-1.6,i,1.1

# A run of entries of the results above, as a working copy:
SMILES,INS promoter inh,INS promoter inh cell count,PKD1 inh,RGS16-Gao HTS,GALR2 agonist,HSV replic up,HSV replic up primary fold
CCN1C(=O)/C(=C\c2ccncc2)SC1=Nc1ccc(C)c(C)c1,28,47,-2,66,-0.6,i,1
COc1ccc2c(c1OC)C(=O)N1N=C(c3ccc(Br)cc3)CC21 (stereo not given),nt,nt,-2,104,-0.6,nt,nt
Cc1onc(-c2c(F)cccc2Cl)c1C(=O)c1ccccc1,nt,nt,nt,100,nt,i,1.4
O=C(COC(=O)Cc1ccc(S(=O)(=O)N2CCOCC2)s1)Nc1ccc2c(c1)OCO2,-17,95,6,106,-0.9,i,0.81
CCc1ccc(NC(=O)CSc2nc(CSc3ccc(C)cc3)cc(=O)[nH]2)cc1,nt,nt,nt,103,nt,i,1.1
O=C(NC(=S)NCCC1=CCCCC1)c1cccnc1,nt,nt,-5,101,nt,i,1.1
COC(=O)c1ccc(CSc2nc3c(cnn3-c3ccc(C)c(C)c3)c(=O)[nH]2)o1,-53,233,-7,nt,-0.8,i,0.81
O=S(=O)(c1cccc(-c2cn3cccnc3n2)c1)N1CCCCCC1,nt,nt,-9,109,-0.6,i,0.91
Cc1ccc(C(=O)NS(=O)(=O)c2ccc(C)cc2)cc1,nt,nt,nt,108,nt,i,0.76
CC(C)[C@H](NC(=O)c1ccccc1)C(=O)OCC(=O)NCCC1=CCCCC1,-41,57,-7,140,0.1,i,1
COc1ccc(-c2coc3c(CN4CCCCC4)c(O)c(CN4CCCCC4)c(O)c3c2=O)cc1,-100,113,6,132,0.0,i,0.45
CCN1CCN(CC(=O)c2ccc(OC)cc2)CC1,nt,nt,2,101,nt,i,0.99
COc1ccccc1Oc1c(C)oc2c(CN3CCN(C)CC3)c(O)ccc2c1=O,-29,121,-10,101,-1.9,nt,nt
Cc1ccccc1Nc1nc(CSc2nnc(-c3ccoc3C)n2C)cs1,nt,nt,-11,98,-1.7,i,1.1
C[C@@H]1NC(=O)c2cc([N+](=O)[O-])cc(I)c2NCC[C@@H](C(N)=O)NC(=O)[C@H](CC(N)=O)NC1=O,0,99,-11,106,-1.6,i,1.1

# Other structures:
SMILES,INS promoter inh,INS promoter inh cell count,PKD1 inh,RGS16-Gao HTS,GALR2 agonist,HSV replic up,HSV replic up primary fold
COc1cccc(CNS(=O)(=O)c2cc(Br)cc3c2N(C(C)=O)C(C)C3)c1 (stereo not given),-23,120,15,100,0.5,i,0.87
COc1ccccc1NCCC(=O)OCC(=O)NC1CC1,nt,nt,6,101,0.7,i,1.1
COc1cc(/C=C/C(=O)Nc2ccc(C)cc2)cc(OC)c1OC,43,128,-2,102,-0.6,i,0.9
COc1ccc2nc(NC(=O)CCNC(=O)c3ccccc3Cl)sc2c1,6,139,7,98,nt,i,0.84
CCc1cc(-c2n[nH]c(C)c2-c2nc3ccccc3n2C)c(O)c(CN2CCN(C)CC2)c1O,nt,nt,7,101,0.9,i,0.84
Cc1ccc2c(c1)c1c(n2CC(O)CN2CCC(C)CC2)CCCC1 (stereo not given),nt,nt,nt,105,nt,i,0.83
CC(C)NC(=O)CN1CCN(Cc2nc(-c3cccs3)no2)CC1,nt,nt,8,95,nt,i,0.94
c1ccc2c(-c3c[nH]c4ccccc34)c3ccccc3nc2c1,-33,94,-3,99,1.2,nt,nt
Cc1ccc(S(=O)(=O)[N-]c2nc3ccccc3nc2-[n+]2cc(C)cc(C)c2)cc1,nt,nt,nt,103,nt,i,0.85
COc1ccc(CCC(=O)NCCc2nc3ccccc3[nH]2)cc1,27,121,2,102,nt,i,0.96
Cc1cccc(NC(=O)CSc2nnc(CNC(=O)c3ccc(S(=O)(=O)N(C)C)cc3)n2-c2cccc(C)c2)c1,29,106,-10,64,1.0,i,0.87
CCOC(=O)C1=C(CC)Nc2ccccc2N/C1=N\S(=O)(=O)c1ccc2ccccc2c1,14,146,4,103,nt,i,0.91
CC12CCC(C/C1=N/NC(=O)COc1ccccc1Cl)C2(C)C (stereo not given),21,125,0,111,nt,i,1.1
CC(C)N(Cc1nc(-c2ccc3c(c2)OCO3)no1)Cc1nccn1C,nt,nt,3,103,nt,i,1.4
CCOc1c(O)ccc(C2NC(=O)N(C)C(C)=C2C(=O)OC)c1[N+](=O)[O-] (stereo not given),35,107,10,89,nt,i,1.2
CC(C)N(Cc1nc(-c2ccccc2)no1)C(=O)CSc1ccccc1,-72,82,4,101,-1.4,i,0.98
Cc1cc(C)n(-c2c(F)c(F)c(CO)c(F)c2F)n1,14,110,-1,95,-1.1,i,0.83
Cc1[nH]c2ccccc2c1C(=O)COC(=O)c1c(-c2c(F)cccc2Cl)noc1C,nt,nt,4,109,-1.0,i,1.1
COc1ccccc1N1C(=O)C2C(C(=O)c3ccccc3)=NN(c3ccccc3)C2C1=O (stereo not given),nt,nt,nt,102,nt,?,nt
CCOC(=O)Nc1n[nH]c(NC(=O)OCC)c1[N+](=O)[O-],33,148,4,101,nt,i,0.84
COC(=O)c1cnn(-c2cc(Oc3ccccc3)ncn2)c1N,nt,nt,9,103,-1.6,i,0.87
COc1ccc(OCCC(=O)Nc2cc(C)on2)cc1,44,77,-4,101,-0.7,i,1.1
CCCOc1ccc(/C(O)=C2/C(=O)C(=O)N(CCN(C)C)C2c2ccncc2)cc1 (stereo not given),36,94,4,nt,-1.7,nt,nt
COc1cccc(-n2nc(-c3ccnn3-c3ccc(C)cc3)c(=O)n(C)c2=O)c1,-38,78,0,102,-3.6,i,0.9
C=CCN1c2ccccc2[C@]23C[C@@H](C(=O)OC)N(C(=O)c4cccs4)C2=NC(C(=O)OC)=C(C(=O)OC)[C@H]13,nt,nt,nt,97,nt,i,0.94
CC(C)(C)C1c2[nH]c3ccccc3c2CCN1Cc1cccc(OCCO)c1 (stereo not given),nt,nt,3,101,nt,i,1.6
Cc1ccc(F)cc1NC(=O)C1CCCN(c2ncccn2)C1 (stereo not given),36,109,-11,101,-2.3,i,0.89
CC(=O)Nc1ccc(S(=O)(=O)Nc2ccc(=O)n(Cc3ccc(Cl)c(Cl)c3)c2)cc1,nt,nt,-4,100,nt,i,0.97
CCCCC(=O)N(c1ccc(OCC)cc1)C1C=CS(=O)(=O)C1 (stereo not given),nt,nt,-9,36,-2.5,i,1.1
CCCCC(O)(CCCC)C(=O)NN(C(=O)OCC)c1ccccc1,nt,nt,7,102,0.3,i,1.1
CCNc1ccc(C(=O)OCC)cc1NC(=O)c1cccc(N(C)C)c1,0,22,-2,100,-0.6,i,0.5
CCOP(=O)(O)c1cccc(OCCOCCOc2cccc(P(=O)(O)OCC)c2)c1,21,68,1,96,nt,i,1
CC(C)Cc1nc2ccccc2n1CCc1ccccc1,0,107,-6,107,-1.8,i,1.1
